Six1-Eya2 inh: inhibitors of human Six1/Eya2 interaction; AlphaScreen GST-Six1/His-Eya2 binding, biochemical; stronger effect = lower value; control for the full effect not named in the record; Q15475+O00167; hit rate 0.56% among 360,000; activity change, % (test concentration not listed); in the data active = activity change below about -65%; inconclusive = about -30% to -65%; inactive = above about -30%; further: on the % scale 0 is the no-effect control and ±100 the full control effect; compound concentration not given in the record
Target sequence (O00167 whole entry, looked up): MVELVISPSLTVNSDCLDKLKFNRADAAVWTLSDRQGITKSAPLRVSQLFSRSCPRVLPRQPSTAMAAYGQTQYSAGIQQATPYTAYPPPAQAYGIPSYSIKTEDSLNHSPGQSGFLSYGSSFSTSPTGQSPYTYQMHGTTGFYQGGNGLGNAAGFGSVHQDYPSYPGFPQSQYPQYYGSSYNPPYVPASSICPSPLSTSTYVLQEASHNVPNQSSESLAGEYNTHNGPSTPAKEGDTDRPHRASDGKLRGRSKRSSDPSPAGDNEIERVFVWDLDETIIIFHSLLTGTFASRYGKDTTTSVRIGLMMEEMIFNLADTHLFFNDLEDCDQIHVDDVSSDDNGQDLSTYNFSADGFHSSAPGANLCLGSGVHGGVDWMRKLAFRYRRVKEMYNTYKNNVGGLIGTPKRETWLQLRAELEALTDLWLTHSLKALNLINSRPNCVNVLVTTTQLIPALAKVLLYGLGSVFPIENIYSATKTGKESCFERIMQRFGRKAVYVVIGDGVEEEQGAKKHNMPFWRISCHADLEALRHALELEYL
Target sequence (Q15475 whole entry, looked up): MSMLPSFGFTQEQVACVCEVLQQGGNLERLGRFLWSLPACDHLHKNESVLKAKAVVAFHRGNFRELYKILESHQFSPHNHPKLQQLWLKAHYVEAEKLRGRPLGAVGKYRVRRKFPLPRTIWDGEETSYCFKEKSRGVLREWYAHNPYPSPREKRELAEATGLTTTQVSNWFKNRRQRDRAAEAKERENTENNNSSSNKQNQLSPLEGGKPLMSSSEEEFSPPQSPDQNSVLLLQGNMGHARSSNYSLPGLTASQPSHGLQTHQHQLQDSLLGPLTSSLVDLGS
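Six1/Eya2 binding was read as AlphaScreen signal after compounds were pinned into GST-Six1 plus His-tagged Eya2 (5X stock 250/500 nM) in pH 8.0 Tris/NaCl/TCEP buffer, beads added, then incubated 1 h, 37 C, dark.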
TRPV1 potentiator: human TRPV1 potentiation; potentiation, % at 8.33 µM; TRPV1-expressing cells, Fluo-8 calcium influx, capsaicin EC20 potentiation; host cell line not named in the record; control for the full effect not named in the record; AID 540277; hit rate 0.02% among 320,000; Q8NER1; active means potentiation above 80%; inconclusive means 30% to 80%; inactive means below 30%; further: 0% is about no effect
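TRPV1-expressing cells were cultured overnight at 35.5C and loaded with Fluo-8 calcium dye for 40 to 90 min at room temperature. After a 10 s baseline, compound was added and calcium influx was read kinetically for 3 min (ex 480/em 520 nm).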
Sfp inh: inhibitors of Bacillus subtilis Sfp phosphopantetheinyl transferase; Biochemical Sfp PPTase activity, qHTS; Potency, µM, for the others: max response, negative = inhibition, usual class: inhibitors; hit rate 3.5% among 310,000; AID 1490; active means well fitted inhibition curve with a large enough effect; inconclusive means small, poorly fitted or top-dose-only effect, or another doubt; inactive means no such curve, though single readings can be large or run the other way;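 further: the enzyme is Sfp with the accession as filed and its product quenches rhodamine fluorescence; potency means the concentration at half of the fitted maximal effect; 0% = enzyme reaction without inhibitor and -100% = no enzyme wells; top concentration of the series not given in the record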
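With Hepes-Na pH 7.6 buffer containing 10 mM MgCl2, Sfp (15 nM) modified BHQ-2-YbbR (12.5 uM) using rhodamine-CoA (5 uM). Two reads 30 minutes apart at 525/598 nm yielded each well's rate.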
PINK1 modulator: modulators of PINK1 expression | PINK1 immunofluorescence, high-content cytometry, 24 h | Potency, µM (highest dose often 76.6 µM), for inactives: top-dose activation (PINK1 increase), most hits filed as activators | hit rate 0.2% among 410,000; active = well fitted activation curve with a large enough effect; inconclusive = small, poorly fitted or top-dose-only effect; inactive = flat fitted curve, though single readings scatter; cell line not stated here;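 further: potency means the concentration at half of the fitted maximal effect; % of control where 0% means no effect; nearly all actives have a fitted effect of over 65% in size; a mitochondrial uncoupler was the plate control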
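Readout is PINK1 immunofluorescence, quantified alongside mitochondrial, cell and nuclear markers by laser-scanning microplate cytometry. Cells from a stable line were exposed to compound titrations (5 concentrations) for 24 hours, with CCCP controls.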
D2 agonist: activates the human D2 dopamine receptor; P14416; hit rate 0.084% among 360,000; DiscoveRx PathHunter D2 beta-arrestin, luminescence, 90 min; 100% = 57 uM dopamine signal; activation, % (no concentration beside the values); in the data active = activation above about 40%; inconclusive = about 15% to 40%; inactive = below about 15%; further: compound concentration not given in the record; the text of the record calls up to 30% inactive
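DiscoveRx PathHunter D2 beta-arrestin cells (2,100/well) attached overnight, then compound-stimulated 90 min at 37 C in HBSS/10 mM HEPES/0.1% Tween-20 buffer; beta-galactosidase complementation read by luminescence after 1 h at ambient temperature. Dopamine 57 uM final (EC100) as control.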
CtBP-E1A inh: inhibitors of CtBP/E1A interaction; AlphaScreen GST-E1A/His-CtBP binding, 1536-well; stronger effect = lower value; control for the full effect not named in the record; activity change, % (no concentration beside the values); hit rate 0.49% among 340,000; AID 651724; in the data active means activity change below about -65%; inconclusive means about -30% to -65%; inactive means above about -30%; further: on the % scale 0 is the no-effect control and ±100 the full control effect; compound concentration not given in the record
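Steps: dispense buffer (Tris pH 8.0, NaCl 300 mM, TCEP 1 mM, BSA, Tween 20); add 5X protein mix (GST-E1A, His-CtBP, 125 nM each); pin 23 nL compound; 2 h at 37 °C, dark; add 5X beads (50 ug/mL); 1 h; read.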
D2 potentiator: potentiates the human D2 dopamine receptor allosterically; P14416; DiscoveRx D2 beta-arrestin cells, luminescence, 90 min; 100% = 57 uM dopamine signal; potentiation, % (test concentration not listed); hit rate 0.23% among 360,000; active = potentiation of 50% or more; inconclusive = 30% to 50%; inactive = 30% or less;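 further: compound concentration not given in the record; tested on top of an EC20 dose of dopamine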
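D2 cells co-treated with compound plus 50 nM dopamine (EC20) for 90 min at 37 deg C to detect potentiation. Beta-arrestin recruitment was read as enzyme-fragment luminescence after 1 h at ambient temperature. Full response was set by 57 uM dopamine.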
* hit, by the source's call; ? = inconclusive; · = not tested or not shown; [ ] = remark or other dose.

SMILES | Six1-Eya2 inh | TRPV1 potentiator | Sfp inh | PINK1 modulator | D2 agonist | CtBP-E1A inh | D2 potentiator
CCOC(=O)c1c(NCC(C)C)c2ccccc2[nH]c1=O | -5 | -5 | -19% | -1.5% | -3.2 | 1 | -11
Cc1ccc(S(=O)(=O)N2CCOC2CNC(=O)C(=O)NCCN2CCOCC2)cc1 (stereo not given) | 6 | -24 | 4% | -0.4% | -5.0 | 5 | -8
COc1ccc(C(=O)NCC(=O)N/N=C(C)\C=C\c2ccccc2)cc1OC | -1 | 8 | 19% | 0.0% | -1.4 | · | 7
CC(C)(NO)/C(=N\O)c1ccccc1 | 0 | 1 | -7% | 1.1% | 1.0 | 4 | -13
O=C(COc1ccc2c(-c3ccccc3)cc(=O)oc2c1)NCCCN1CCOCC1 | -3 | -24 | 6% | 0.4% | -3.1 | -8 | -19
CCCc1nc(SCC(=O)c2ccccc2)c2c(=O)n(C)c(=O)n(C)c2n1 | -2 | 12 | -11% | 1.1% | -2.7 | 7 | 5
O=C1NC(=O)C(c2cn(-c3ccccc3)nc2-c2ccc(F)cc2)N1 (stereo not given) | -4 | -9 | 20% | 2.5% | -3.3 | 11 | -11
COc1ccc(C(=O)O)cc1S(=O)(=O)N(CCc1ccccc1)Cc1ccccc1 | 3 | -5 | 10% | -1.0% | -5.1 | -7 | -5
CCOC(=O)[C@H]1[C@H]2COc3ccc(OC)cc3[C@@H]2N2C(=O)CN(CCc3c[nH]c4ccccc34)C(=O)[C@@]12C | -8 | 1 | · | 0.3% | 2.1 | -7 | -5
Cc1noc(C)c1NC(=O)N(C)C[C@H]1Oc2ccc(NS(=O)(=O)c3cccs3)cc2C(=O)N([C@H](C)CO)C[C@@H]1C | 1 | · | · | 1.1% | -1.5 | 4 | -3
CCCCn1c(N)c(N(CCOC)C(=O)c2cccc(-n3cnnn3)c2)c(=O)[nH]c1=O | 1 | -9 | · | 0.8% | -2.2 | 0 | -39
Cc1cn([C@@H](CCCCNC(=O)OC(C)(C)C)C(=O)NCCCCCCCCCCC(=O)N2CCN(C(=O)OC(C)(C)C)CC2)nn1 | -10 | 0 | · | 4.3% | ? | -2 | 23
COc1ccc(Cc2n[nH]c(=S)n2C)cc1Br | 1 | ? | ? | -0.6% | 2.2 | 1 | -4
Cc1cc(=O)nc2c3ccccc3n(CC(=O)NCCCN3CCCCC3C)n12 (stereo not given) | -5 | -1 | 9% | -0.4% | -0.9 | · | -3
CCOc1ccc2oc(-c3ccccc3)c(C(=O)N3CCN(CCO)CC3)c2c1 | -3 | · | 3% | -3.0% | -4.2 | -1 | -8
Cc1ccccc1C(=O)N1CCN(c2ccc(NC(=O)CSc3ccc(Cl)cc3)cc2)CC1 | -18 | -5 | 9% | -0.9% | 1.0 | -19 | 4
CO/N=C(\CS(=O)(=O)Cc1ccc(OC)cc1)c1ccc(Cl)cc1 | 2 | 3 | 21% | ? | -2.4 | 18 | -13
CCOC(=O)C1=C(C)NC2=C(C(=O)CCC2)C1c1cn(Cc2ccc(Cl)cc2Cl)nc1-c1ccccc1 (stereo not given) | -1 | -9 | 7% | 0.2% | -4.1 | 3 | -10
CCN(CC)CCNC(=O)C(=O)Nc1cc2c3c(c1)CCC(=O)N3CCC2 | 5 | -18 | 16% | -1.1% | -8.1 | 8 | -7
Cc1cc(Cl)ccc1OCCCC(=O)NCCc1nnc2ccccn12 | 20 | -5 | 16% | -0.3% | -2.7 | 42 | -2
Nc1ncnc2c1nc(Br)n2[C@@H]1O[C@@H]2COP(=O)(O)O[C@H]2[C@H]1O | 4 | · | · | 0.4% | -5.7 | -19 | 0
COc1ccc(-n2nc3c(c2NC(=O)C2CC2)CS(=O)C3)cc1 (stereo not given) | 2 | 10 | 9% | 0.0% | -0.9 | 2 | -10
O=C1[C@H]2CCC=C[C@H]2[C@H](c2cccc(Br)c2)N1Cc1ccccc1 | 5 | · | 112µM* | 2.9% | -4.8 | -3 | -6
O=C(N/C(=C/c1ccco1)C(=O)N1CCCCC1)c1cccs1 | 1 | -5 | -15% | 11%[38.3 µM] | -2.7 | 7 | -4
CSc1nc2c(c(=O)[nH]1)C(c1ccc(F)cc1)CC(=O)N2 (stereo not given) | 0 | 3 | 4% | -1.4% | 5.1 | 6 | -1
O=C(NCc1nnc(SCC(=O)N2CCCC2)o1)c1ccco1 | 9 | 17 | 13% | 0.3% | 0.9 | 4 | -1
COc1ccc(OC)c(NC(=O)c2ccno2)c1 | -2 | -3 | 2% | 0.2% | 0.9 | 1 | 7
CCOc1ccc(S(=O)(=O)N2CCN(C)CC2)cc1NC(=O)c1ccccc1F | -69* | 3 | 7% | -0.9% | -1.4 | 1 | -17
Cc1c2cnn(CC(=O)Nc3c(F)c(F)cc(F)c3F)c(=O)c2c(C)n1Cc1ccccc1F | -19 | 18 | -10% | 0.6% | -0.9 | 6 | -2
O=C(NCc1ccccc1F)c1cccc(S(=O)(=O)N2CCCCCC2)c1 | 7 | -7 | · | -0.7% | -1.3 | 1 | -1
Nc1nnc(SCC(=O)OCC(=O)Nc2ccccc2F)s1 | 6 | -1 | 13% | 0.5% | -1.4 | · | -6
CCOc1ccc(S(=O)(=O)N2CCCC(C(=O)NCc3ccccn3)C2)cc1Cl (stereo not given) | -22 | -4 | · | 2.5% | -1.8 | -3 | -20
Cc1cc(=O)oc2c(C)c(OC3CCCCC3=O)ccc12 (stereo not given) | 5 | -13 | 13% | -0.2% | 0.8 | 4 | 4
COc1ccc(-n2c(=S)[nH]c3sc(-c4ccccc4)cc3c2=O)c(OC)c1 | -2 | -3 | 12% | -0.4% | -4.2 | -2 | -8
Cc1nnc(SCCC#N)n(CCC#N)c1=O | 3 | 5 | 13% | 0.0% | -4.3 | 1 | -2
CCOc1cc(C2NC(=O)c3ccccc3O2)ccc1OC (stereo not given) | -17 | -4 | 1% | 0.0% | -2.4 | 4 | -8
COc1ccc(Cl)cc1NC(=O)C/C(C)=N/NC(=O)c1ccccc1[N+](=O)[O-] | -7 | 1 | 1% | -0.4% | -7.4 | 2 | -17
N#Cc1ccc(NC(=O)COC(=O)C2CCC2)cc1 | 11 | · | · | 0.2% | -1.2 | -7 | -12
CC(=O)N1CCc2ccc(S(=O)(=O)N3CC(C)OC(C)C3)cc21 (stereo not given) | 7 | 22 | 7% | -2.6% | -0.3 | 5 | -9
CC(C)(C)c1ccc(N2C(=O)CC(C/C=C/c3ccccc3)C2=O)cc1 (stereo not given) | 0 | 22 | -6% | -0.1% | 0.8 | · | 4
Cc1cc(=O)cc(C)n1-c1ccccc1Br | -3 | 2 | 32%[activator] | 1.8% | 1.2 | · | -2
Cc1nc2c(nnn2Cc2c(Cl)cccc2Cl)c(=O)[nH]1 | 6 | -6 | 5% | -0.1% | 8.5 | -8 | -7
Cc1cc(C)nc(NC(=O)c2cccs2)n1 | 3 | 2 | 23% | 0.6% | -4.0 | 4 | 0
N#Cc1ccc(OCC(=O)NNC(=S)NC(=O)C2CC2)cc1 | -17 | · | · | 0.2% | -0.4 | -13 | -12
FC(F)(F)c1cccc(N2CCN(C(=S)NC3CCCC3)CC2)c1 | 0 | -7 | 10% | ? | 1.3 | 6 | -36
O=C(NCc1ccco1)/C(=C/c1cccnc1)NC(=O)c1cccc(Br)c1 | 9 | 22 | 3% | · | 0.4 | -3 | -11
O=c1ccc2ccc(OCCOc3cccc(Cl)c3)cc2o1 | 10 | 2 | -19% | 0.8% | -0.4 | 1 | -11
CNc1n[nH]c(-c2ccccc2)n1 | -3 | · | · | 0.4% | -4.9 | 4 | -2
COc1ccc(-c2nc(CN3CCC(C(=O)NC4CCCC4)CC3)c(C)o2)cc1OC | 5 | -6 | 14% | 3.4% | 2.0 | 3 | 0
O=C(NCc1ccc(Cl)nc1)c1ccc2sc([C@@H]3O[C@H](CO)[C@H](O)[C@H](O)[C@H]3O)nc2c1 | 4 | · | · | 1.4% | -11 | 6 | -17

Structural class: the compounds so far containing a tert-butyl group
SMILES | Six1-Eya2 inh | TRPV1 potentiator | Sfp inh | PINK1 modulator | D2 agonist | CtBP-E1A inh | D2 potentiator
Cc1cn([C@@H](CCCCNC(=O)OC(C)(C)C)C(=O)NCCCCCCCCCCC(=O)N2CCN(C(=O)OC(C)(C)C)CC2)nn1 | -10 | 0 | · | 4.3% | ? | -2 | 23
CC(C)(C)c1ccc(N2C(=O)CC(C/C=C/c3ccccc3)C2=O)cc1 (stereo not given) | 0 | 22 | -6% | -0.1% | 0.8 | · | 4

Carrying on.
SMILES | Six1-Eya2 inh | TRPV1 potentiator | Sfp inh | PINK1 modulator | D2 agonist | CtBP-E1A inh | D2 potentiator
CN(C)c1ccc(/C=[N+](\[O-])C(C)(C)/C=N/O)cc1 | 1 | 18 | 3% | -1.1%[38.3 µM] | 0.0 | 0 | -5
CCCCC(CCCCl)C(=O)Nc1ccccc1 (stereo not given) | 2 | 1 | 9% | 5.0% | -0.2 | -2 | -12
CC(C)C(=O)N1CCN(c2ccc(NC(=O)c3ccc4c(c3)OCCO4)cc2Cl)CC1 | -5 | -3 | -12% | -2.5%[38.3 µM] | 4.8 | 0 | 14
O=C(OCc1ccccc1)/C(=C/c1ccccc1Cl)NC(=O)c1ccco1 | -6 | -2 | 14% | 2.6% | -2.6 | 0 | -10
CN(Cc1nc(-c2cccnc2)no1)S(=O)(=O)c1ccccc1 | ? | -30 | 13% | -2.8% | -2.8 | 5 | -4
Cc1cc(C(=O)NCC2COc3ccccc3O2)c2ccccc2n1 (stereo not given) | -2 | 6 | 18% | 1.4% | -0.6 | -1 | 5
COCCCN1CC(=O)N2C(c3cccc(OC)c3OC)c3[nH]c4ccccc4c3C[C@H]2C1=O (stereo not given in full) | -2 | -1 | 3% | -0.3% | 6.5 | · | -4
C=C[C@@H]1c2cc(C)ccc2N(S(=O)(=O)c2ccc(C)cc2)[C@H](c2ccccc2C(F)(F)F)C1(C#N)C#N | 4 | 7 | · | -0.7% | -3.2 | 0 | -4
COc1ccc(N=Nc2nc(-c3ccccc3)c(-c3ccccc3)[nH]2)cc1 | -70* | 15 | 15% | -0.5% | -4.7 | 2 | -20
Cc1ccc(S(=O)(=O)N2CCC(C(=O)OCC(=O)N3CCCC3=O)CC2)cc1C | 1 | -17 | · | 0.4% | -0.1 | 5 | 1
CCOC(=O)c1[nH]c2ccc(OC)cc2c1NC(=O)CCN1CCC(C)CC1 | -3 | 7 | -7% | -2.9% | -2.2 | -12 | -21

Source: PubChem (National Center for Advancing Translational Sciences (NCATS))
